# Compound activity: PubChem BioAssay, National Center for Advancing Translational Sciences (NCATS)
# miR-21 FLuc: miR-21 reporter, rising signal. 340,000 tested, under 10 active. Potency, µM (titrated, usually from 38.3 µM), inactives show at the highest dose reporter change, positive = more light. HeLa miR-21 FLuc reporter, luciferase, 48 h; active = well fitted rising curve with a large enough effect; inconclusive = small, poorly fitted or top-dose-only effect; inactive = no such curve, though single readings can be large or run the other way;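 further: % of control where 0% means no effect; miR-21 action dims this reporter so a rising signal means less miR-21 action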
#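 HeLa cells endogenously expressing miR-21, stably carrying CMV-driven firefly luciferase with a downstream miR-21 binding site, 2000 cells/well. Titrations up to approximately 40 uM, 48 hours; luciferase luminescence read.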
# Rango dissoc inh: inhibition of RanGTP-driven Rango-importin beta dissociation; O95149+P62826; Biochemical FRET Rango-importin beta, RanGTP-induced dissociation; Potency, µM (doses to about 46.1 µM), for inactives: top-dose activity change, negative = inhibition; 0.071% of 340,000 active; AID 540253; active means falling FRET ratio curve, often poorly fitted, with flat reads before Ran was added; inconclusive means other falling curves, or compound fluorescence or quenching; inactive means flat or rising ratio curve;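 further: potency means the concentration at half of the fitted maximal effect; % of control where 0% means no effect; nearly all actives have a fitted effect of over 45% in size; -100% = wells without RanGTP and RCC1; the record marks most hits as doubtful in a second field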
#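 Two FRET readings bracket the reaction: one 5 min after compound meets Rango–importin beta, another 45 min after RanGTP-RCC1 (0.6 uM Ran, 0.2 uM RCC1, 2 mM GTP) is added. Only the second defines inhibition.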
# GLA inh pH 4.5: blocks human alpha-galactosidase A at pH 4.5 | P06280 | purified enzyme, 4-MU-alpha-Gal fluorescence, pH 4.5 | activity change, negative = inhibition, % at 105 µM | 230,000 tested, under 10 active | AID 1467; inconclusive = small, poorly fitted or top-dose-only inhibition, or a rising curve; inactive = flat fitted curve, though single readings scatter; no compound was filed as active;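 further: 0% = full activity with enzyme and -100% = basal without enzyme; dose as in the result columns while the protocol names 77 µM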
# Rango complex inh: inhibitors of Rango-importin beta complex formation. Q14974. 0.031% of 340,000 active. Rango CFP/YFP FRET sensor + importin beta, 45 min. Potency, µM (series often up to 92.2 µM), for the others: at the top dose inhibition of complex formation. AID 540263; active = rising FRET ratio curve, often small or poorly fitted; inconclusive = mostly compound fluorescence or quenching in the first reads; inactive = flat curves in all reads;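 further: potency means the concentration at half of the fitted maximal effect; 0% = DMSO wells and 100% = buffer wells lacking importin beta; nearly all actives have a fitted effect of over 15% in size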
# Target sequence (Q14974 whole entry, looked up): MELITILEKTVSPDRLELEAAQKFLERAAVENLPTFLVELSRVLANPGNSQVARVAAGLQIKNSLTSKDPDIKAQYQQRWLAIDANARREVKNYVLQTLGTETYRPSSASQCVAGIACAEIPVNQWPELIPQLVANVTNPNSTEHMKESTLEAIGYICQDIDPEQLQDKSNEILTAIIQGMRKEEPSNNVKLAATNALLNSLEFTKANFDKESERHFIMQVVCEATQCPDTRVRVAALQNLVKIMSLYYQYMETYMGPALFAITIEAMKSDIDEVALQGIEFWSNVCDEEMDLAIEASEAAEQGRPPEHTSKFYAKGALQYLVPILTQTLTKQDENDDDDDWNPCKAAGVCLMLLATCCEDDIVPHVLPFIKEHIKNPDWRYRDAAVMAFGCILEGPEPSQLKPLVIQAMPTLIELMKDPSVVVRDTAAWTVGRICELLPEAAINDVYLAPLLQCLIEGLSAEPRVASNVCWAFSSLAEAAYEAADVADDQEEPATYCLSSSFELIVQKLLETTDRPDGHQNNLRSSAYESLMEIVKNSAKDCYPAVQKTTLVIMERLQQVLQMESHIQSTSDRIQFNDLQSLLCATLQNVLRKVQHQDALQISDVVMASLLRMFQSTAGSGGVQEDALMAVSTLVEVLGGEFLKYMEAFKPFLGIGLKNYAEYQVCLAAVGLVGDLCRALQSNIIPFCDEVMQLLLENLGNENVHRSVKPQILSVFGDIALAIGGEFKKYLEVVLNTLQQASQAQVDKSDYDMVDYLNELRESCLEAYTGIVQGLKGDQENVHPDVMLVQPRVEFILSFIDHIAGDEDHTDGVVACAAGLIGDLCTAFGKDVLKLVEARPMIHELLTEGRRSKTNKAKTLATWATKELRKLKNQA
#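 FRET biosensor (snurportin 1 IBB flanked by EYFP and cerulean), 50 nM, with compound 5 min, then 0.125 microM importin beta in PBS, 1 mM DTT, 0.02% Tween-20, 0.1% BSA. CFP/YFP ratio read after 45 min at room temperature; pre-read flags interference.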
# * = called active by the depositor; ? = inconclusive; · = not tested or not shown. Only part of the results is shown; count on the stated rates, not on these rows.
Rango complex inh | miR-21 FLuc | GLA inh pH 4.5 | Rango dissoc inh | molecule
? | 19% | 0 | -16% | COc1cc(/C=C/C(=O)OCc2cn3cc(Cl)ccc3n2)ccc1O
1.1% | · | · | 4% | COc1ccccc1CC(=O)c1ccc(OCc2ccccc2)cc1
? | -58% | 0 | -12% | N=C1C(c2nc3ccccc3s2)=C(O)CN1Cc1ccco1
-2.0% | -3% | 1 | -6% | CCOC(=O)N1CCC(NC(=O)C2CCN(c3nc(-c4ccc(OC)cc4)no3)CC2)CC1
-1.0% | 2% | -1 | -2% | N#Cc1ccc(N2C(=O)[C@@H]3C(C(=O)c4cnccn4)=NN[C@@H]3C2=O)cc1
-0.6% | · | · | 1% | CC(Sc1nnc(C2CC2)n1C1CC1)C(=O)Nc1ccccc1C#N (centres undefined)
-1.4% | -46% | -1 | 8% | Cc1ccc(/C=N/NC(=O)C(C)Oc2ccccc2[N+](=O)[O-])s1 (centres undefined)
-0.1% | -8% | 0 | 15% | O=C(NC1CCCCC1)c1cc([N+](=O)[O-])ccc1N1CCOCC1
-0.8% | -5% | -1 | 0% | c1ccn2c(CNc3ncnc4sccc34)nnc2c1
? | -66% | -8 | -13% | Cn1/c(=N/N=C/c2ccccn2)sc2ccccc21
-2.7% | -4% | 5 | -15% | O=C(COc1ccccc1C(=O)Nc1ccccc1)c1ccc(Br)cc1
? | -9% | 1 | -8% | O=C(Nc1cc(=O)[nH]c2nc(-c3ccccc3)nn12)c1ccccc1Cl
1.6% | -21% | 0 | 0% | C(/C=C/c1ccccc1)=N/N1CCN(c2ccccc2)CC1
1.7% | -1% | · | -2% | CC(C)(C)NC(=O)C(c1cccs1)N(Cc1ccco1)C(=O)c1csnn1 (centres undefined)
3.0% | -11% | -1 | 2% | CN1CCN(CCCCOc2ccccc2-c2ccccc2)CC1
0.3% | -50% | · | 1% | CCOc1ccc(C(=O)Cn2cnc3ccccc3c2=O)cc1
2.7% | -14% | 2 | 21% | COc1cccc(NC(=O)c2nnn(CCc3ccccc3)c2N)c1
1.1% | -19% | · | 0% | CCC(C)Nc1nc2c(c(=O)[nH]c(=O)n2C)n1CCOc1ccccc1 (centres undefined)
-2.7% | -65% | 4 | 1% | O=C(NCCSc1ccccc1)c1ccccc1Cl
5.7% | 11% | -9 | 7% | CCCCCCCCC(=O)N/N=C/c1ccccn1
2.6% | -8% | · | -5% | COc1ccc(-c2noc(CN(C)Cc3ccccc3)n2)cc1
-0.3% | 0% | -1 | 1% | O=S1(=O)NC(=NCCc2ccccn2)c2ccccc21
-0.9% | -3% | 2 | ? | Cc1cc2cc(CNC(=S)Nc3ccc(OC(F)F)cc3)ccc2n1C
-0.2% | 7% | · | -12% | O=C(C1CCC(=O)N(C2CCCC2)C1)N1CCC(Oc2ccccc2Cl)CC1 (centres undefined)
0.1% | · | · | -16% | O=C(OCCOCn1cc(Br)c(=O)[nH]c1=O)c1ccccc1
-3.4% | -3% | 4 | -4% | CCC(=O)Nc1cc(C(=O)O)ccc1Sc1ccc(C)cc1
4.5% | · | · | -2% | COC(=O)c1ccc(NC(=O)c2ccccc2C(=O)Nc2ccc(C(=O)OC)cc2)cc1
3.8% | 23% | -6 | -2% | FC(F)(F)c1cnc(NNC(=S)Nc2cccnc2)c(Cl)c1
-0.5% | -4% | 2 | -16% | COc1cccc(OC)c1C(=O)N1CCN(Cc2ccncc2)CC1
2.7% | -8% | 3 | -10% | O=C(CSc1ccc(Br)c2cccc(Cl)c12)Nc1ccc(S(=O)(=O)Nc2nccs2)cc1
3.3% | -8% | 0 | 9% | O=[N+]([O-])c1cc(C(F)(F)F)ccc1N1CCN(S(=O)(=O)c2ccc3c(c2)CCCC3)CC1
-0.2% | 3% | -3 | 41% | Cc1ccc(NCC(=O)N/N=C/c2ccc(C(=O)O)cc2)cc1
? | -10% | 5 | ? | Cc1nnc(OC(C)C)c2nn(-c3ccccc3F)c(C)c12
-1.4% | 0% | 5 | -9% | COc1cccc(/C=C/C(=O)OCC(=O)N2c3ccccc3NC(=O)C2(C)C)c1
-3.5% | -3% | 2 | 1% | O=C(CCn1ccc2ccccc21)NC1CCCc2ccccc21 (centres undefined)
-0.7% | -8% | -5 | 8% | COc1cc(C(=S)N2CCCC2)cc(Cl)c1O
-0.1% | -4% | 5 | -17% | CCOC(=O)C1CCN(C(=O)CC(C)c2ccccc2)CC1 (centres undefined)
0.9% | · | · | 2% | Cc1ccc(S(=O)(=O)N(CC(=O)NCc2ccc(F)cc2)C(=O)N2CCN(C)CC2)cc1
-1.4% | -55% | · | -12% | CCC(=O)Nc1ccc(-c2ccc(N3CCC(C)CC3)nn2)cc1
1.5% | 13% | -4 | -5% | COc1cccc(C2CC3(CC(C)(C)NC(=S)N3)Oc3cc(O)ccc32)c1 (centres undefined)
0.6% | 3% | 0 | 0% | CCCc1n(CC(O)COCC2CC=CCC2)c2ccccc2[n+]1C (centres undefined)
0.0% | 0% | · | 0% | COc1cccc(C(=O)NC2CC(C)(C)NC(C)(C)C2)c1OC
4.3% | 1% | · | 7% | O=c1[nH]c(C2CCN(S(=O)(=O)c3ccc4c(c3)OCCO4)CC2)nc2c1nnn2Cc1ccccc1F
-1.1% | 4% | · | -12% | Cc1ccc(NC(=O)CCc2nnc3ccc(NCc4ccco4)nn23)nc1
2.2% | -5% | · | 16% | CCCCCN(C(=O)CCC(=O)OCC(=O)Nc1ccc(C)cc1F)c1c(N)n(CCCC)c(=O)[nH]c1=O
1.5% | -11% | 5 | 7% | CCc1[nH]nc(C(=O)N2CCCC(CCC(=O)N3CCN(c4ccccn4)CC3)C2)c1C (centres undefined)
0.7% | -30% | -7 | 6% | Fc1ccccc1N=C1Nc2cccc3cccc1c23
-0.2% | · | · | -1% | COc1cc2[nH]c(O)c(C=O)c2cc1OC
-2.6% | -4% | 0 | 2% | COc1ccccc1Cn1c(=S)[nH]c2cc(C(=O)N3CCN(C)CC3)ccc2c1=O
-1.1% | -1% | · | -1% | O=C(NNC(=O)c1ccco1)Nc1ccccc1

# (further entries)
Rango complex inh | miR-21 FLuc | GLA inh pH 4.5 | Rango dissoc inh | molecule
1.2% | 3% | 8 | 6% | Cn1c(-c2sccc2OCc2cccc(C(F)(F)F)c2)n[nH]c1=S
0.3% | -37% | 3 | -5% | CCCc1nc2n[nH]c(N)c2c2c1CCCC2
-0.3% | 20% | · | -9% | CCCCC[C@H]1CN(CCc2ccccc2)C(=O)[C@@H]1CC(=O)NCc1ccc(OC)cc1
-1.9% | 6% | -4 | -14% | Brc1cc2c(cc1Br)OCCOCCOCCO2
-5.4% | -48% | · | 14% | CCC(C)NC(=O)c1ccc2c(c1)S(=O)(=O)c1ccccc1C2=O (centres undefined)
1.8% | -1% | 6 | -1% | COCCNC(=O)C(=O)N/N=C(\C)CC(=O)Nc1ccc2c(c1)OCO2
0.6% | · | · | -22% | O=C(COC(=O)CNC(=O)c1ccccc1F)Nc1ccc2[nH]c(=O)[nH]c2c1
-0.9% | -11% | 0 | 3% | CC1(C)Cc2c(sc3nc(-c4ccccc4)oc(=O)c23)CO1
-0.5% | -4% | 5 | 0% | COc1ccc(C(C(=O)NC2CCCCC2)N(C(=O)c2sc(C)nc2C)c2ccc(C(C)=O)cc2)cc1 (centres undefined)
-0.5% | · | · | 3% | CC(=O)N1CCN(C(=O)c2ccc(NS(=O)(=O)c3ccc4c(c3)OCCO4)cc2)CC1
0.7% | -3% | -12 | 14% | C=CCn1c(=NC(=O)CN2C(=O)CCC2=O)sc2cc(S(N)(=O)=O)ccc21
4.0% | · | · | 0% | O=C(Nc1ncccc1O)c1ccc(S(=O)(=O)N2CCCCCC2)cc1
0.4% | -1% | 8 | -3% | Cc1c(NC(=O)c2ccc3c(c2)C(=O)N(Cc2ccco2)C3=O)cccc1C(=O)O
0.9% | 6% | -11 | 28% | O=c1oc2ccccc2c(O)c1/C=N/c1ccccn1
1.4% | -10% | 2 | 0% | Cc1ccc(OCC(=O)N/N=C2/SCC(=O)N2Cc2ccccc2)cc1
0.1% | -41% | · | 7% | Cc1cc(C)cc(NC(=O)CCc2c(C)nn(-c3ccc(N4CCOCC4)nn3)c2C)c1
1.2% | -8% | 6 | -3% | NNC(=O)Cn1nnc(-c2ccc(C(F)(F)F)cc2)n1
2.0% | -7% | -10 | 1% | Cc1cccc(OCCn2c(S(=O)(=O)O)nc3ccccc32)c1
0.2% | · | · | -3% | COc1cccc(N2CC(NS(=O)(=O)c3cccs3)CC2=O)c1 (centres undefined)
0.3% | 0% | -1 | -6% | COC(=O)c1ccc(CSc2nnc(C)n2N)o1
2.8% | 26% | · | 20% | COc1ccccc1Nc1c2c(nc3ccccc13)CCC2
3.2% | 25% | -22 | 5% | CCn1c2ccccc2c2cc(NC(=O)c3cc(OC)c(OC)c(OC)c3)ccc21
2.2% | 0% | 1 | -20% | COc1nc(OC)nc(N2CCC(C(=O)NC3CCCCCC3)CC2)n1
3.0% | · | · | -12% | CC(=O)C[C@H](O)CC(=O)[C@H]1OC(=O)CC/C=C\Cc2ccccc21
2.5% | -7% | -4 | 7% | O=C(CCNC(=O)c1ccco1)NCc1ccccc1
-0.1% | -20% | -2 | 0% | CC(C)(C)C1CCc2onc(C(=O)N3CCOCC3)c2C1 (centres undefined)
0.0% | -22% | -9 | -6% | CCN(Cc1ccccc1)C(=O)c1cc(COc2c(F)cccc2F)on1
0.7% | 1% | -10 | -11% | Cc1cc(NC(=O)CSC2=Nc3ccccc3C3=NC(Cc4ccccc4)C(=O)N23)n[nH]1 (centres undefined)
0.3% | -18% | -2 | 4% | COc1ccccc1/C=C/C(=O)OCCN1CCOCC1
-0.1% | -2% | · | -5% | COc1ccc(C(C(=O)NC(C)(C)C)N(C(=O)CCC(=O)Nc2cc(C)on2)c2cc(C)cc(C)c2)cc1 (centres undefined)
2.2% | · | · | 1% | O=c1c2ccccc2[nH]c(=S)n1CC1CCCO1 (centres undefined)
0.3% | 0% | · | 43% | OCCCNCc1ccc(N(c2ccccc2)c2ccccc2)cc1
2.0% | 2% | · | -1% | CNC(=O)c1c(O)c2cccc3c2n(c1=O)CCC3
-0.9% | 25% | -20 | 3% | c1ccc(N2CCN(c3nc(NCc4ccco4)c4ccccc4n3)CC2)cc1
0.7% | 8% | 4 | -12% | CC(=O)N(C(C)=O)N1C(=O)C2C3c4ccccc4C(c4ccccc43)C2C1=O (centres undefined)
0.0% | 6% | 6 | 0% | Cc1cccc(N2C(=O)CC(SC(N)=Nc3ccccc3)C2=O)c1 (centres undefined)
? | · | · | 12% | COc1ccc(NS(=O)(=O)c2cccc(C(=O)NNC(=O)c3cccc(NC(C)=O)c3)c2)cc1
-3.7% | · | · | -11% | Cc1ccc(S(=O)(=O)N2CCN(C(=O)COC(=O)CCOc3ccccc3C)CC2)cc1
0.3% | -1% | 6 | 2% | CCNC(=O)CN(c1ccc(Br)c(C)c1)S(C)(=O)=O
4.1% | 0% | -6 | 13% | CCOC(=O)CSc1nnc(CNC(=O)c2ccc(S(=O)(=O)N3CCOCC3)cc2)n1C
1.4% | -1% | 4 | ? | CC(c1ccccc1)N1CC(C(=O)N2CCN(c3ccc(F)cc3)CC2)CC1=O (centres undefined)
-4.2% | -7% | 4 | ? | NNC(=O)[C@@H]1C[C@@H]1c1ccccc1
2.2% | -8% | -3 | 8% | C/[N+]([O-])=C\c1coc2ccccc2c1=O

# Complete entries, looked up by structure:
# Cc1cc(NC(=O)CSC2=Nc3ccccc3C3=NC(Cc4ccccc4)C(=O)N23)n[nH]1 (centres undefined) is listed as Rango complex inh = 0.7%; miR-21 FLuc = 1%; GLA inh pH 4.5 = -10; Rango dissoc inh = -11%
# O=c1c2ccccc2[nH]c(=S)n1CC1CCCO1 (centres undefined) is listed as Rango complex inh = 2.2%; miR-21 FLuc = ·; GLA inh pH 4.5 = ·; Rango dissoc inh = 1%
# CC(C)(C)C1CCc2onc(C(=O)N3CCOCC3)c2C1 (centres undefined) is listed as Rango complex inh = -0.1%; miR-21 FLuc = -20%; GLA inh pH 4.5 = -2; Rango dissoc inh = 0%
